Bioassay records: PubChem BioAssay, National Center for Advancing Translational Sciences (NCATS)
Menin-MLL TR inh – displaces Texas Red mutant MLL peptide from human menin | Menin + Texas Red MLL mutant peptide, fluorescence polarization | 270,000 tested, 0.23% active | Potency, µM (titrated, usually from 61.6 µM), for the others: at the highest dose FP activity change, negative = inhibition, most hits filed as inhibitors | O00255; active = well fitted inhibition curve with a large enough effect in the polarisation, with a control signal flat, not every such curve was filed as active; inconclusive = small, poorly fitted or top-dose-only effect, or effect the other way, or a change in a side signal; inactive = no such curve, though single readings can be large or run the other way; the % refers to the polarisation; note: potency is the fitted concentration of half-maximal effect; % of control where 0% means no effect; many of its hits are not listed in these tables
USP2a block – USP2a (human) protease inhibition. O75604. USP2 core, Ub-CHOP2 coupled fluorogenic reporter, 485/531. Potency, µM (doses to about 38.3 µM), for inactives: top-dose activity change, negative = inhibition, actives largely listed as inhibitors. 330,000 tested, 0.01% active;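 note: potency is the fitted concentration of half-maximal effect; plate controls were DMSO wells for no effect and full inhibition by NEM control for full effect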
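Cell-free coupled assay: 10nM USP2 core preincubated 30min RT with compound in Tris-HCl pH 8.0/CaCl2/CHAPS buffer, then 25nM Ub-CHOP2 and 25nM reporter substrate; fluorescence (Ex 485/Em 531) read after 60min RT, normalized to NEM inhibition, concentration-response curves fitted.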
KCNH2 3.1 block – KCNH2 3.1 (human) potassium channel inhibition. U2OS KCNH2 3.1, thallium flux FluxOr; active compounds read low. AID 720553. activity change, % (tested at about 1.8 µM). 340,000 tested, 0.95% active;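 active = maximum activity change below -70%; inconclusive = maximum activity change from -70% to -50%; inactive = maximum activity change above -50%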;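 note: thallium influx rate constant from kinetic fluorescence after stimulation buffer; % is set by controls: 0 for no effect and ±100 for the full control effect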
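Normalized rate constant (relative to positive and negative DMSO controls) derived from a 2 min kinetic fluorescence read after stimulation; U2OS cells expressing the 3.1 isoform via virus at 1.77 x 10^8 /mL.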
CXXC DNA block – blocks binding of human MLL CXXC domain to DNA. MLL-CXXC / FITC-HOXA9 DNA fluorescence polarization. 290,000 tested, 0.037% active. Potency, µM (top dose mostly 115 µM), inactives show top-dose activity change, negative = inhibition, hits mostly inhibitors; active = well fitted inhibition curve with a large enough effect in the polarisation, with a control signal flat, not every such curve was filed as active; inconclusive = small, poorly fitted or top-dose-only effect, or effect the other way, or a change in a side signal; inactive = no such curve, though single readings can be large or run the other way; the % refers to the polarisation; note: potency is the fitted concentration of half-maximal effect
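Steps: dispense CXXC domain solution (7 uM) → pin compounds or unlabeled HOX-A9 DNA control → 5 min ambient → add FLSN-HOX-A9 solution (50 nM) → spin → 30 min ambient → fluorescence polarization. Tris pH 7.5/NaCl/DTT/BSA buffer.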
Coupling enz – inhibits coupling enzyme system, counter-screen for aldolase hits. activity change, negative = inhibition, % at 58.2 µM, hits read low. 290,000 tested, 0.67% active. coupling enzyme system counterscreen, AmpLite Red fluorescence; in the data active = activity change below about -30%; note: % is set by controls: 0 for no effect and ±100 for the full control effect
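Coupling enzymes only (glyceraldehyde-3-phosphate) + compound, at 57.5 uM final, 10 min RT; add substrate/coupling/AmpLite Red mix, 20 min RT; fluorescence ex 525/em 598 nm. Actives flag coupling-system interference.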
TRPV1 agonist – human TRPV1 agonism | Q8NER1 | TRPV1-expressing cells, Fluo-8 calcium influx, agonist mode | activation, % at 8.33 µM | 320,000 tested, 0.19% active | AID 540275; in the data active = activation above about 80%; inconclusive = between about 30% and that limit; note: 0% is about no effect
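Fluo-8 calcium influx in TRPV1-expressing cells, kinetic read (ex 480/em 520 nm). Compound added and read 3 min for agonist activity, followed by capsaicin at EC20 final and 2 min further read for enhancement.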
Giardia kill – kills Giardia lamblia. 340,000 tested, 0.15% active. activity change, % at 7.66 µM, hits read low. AID 540267. Giardia lamblia trophozoite viability; in the data active = activity change below about -80%; inconclusive = between about -30% and that limit;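 note: parasites exposed to compound for two days anaerobically before the ATP read; % is set by controls: 0 for no effect and ±100 for the full control effect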
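Giardia lamblia trophozoites (100 cells/well) were incubated with compounds for 48 h at 37 deg C under anaerobic conditions. Viability was read as ATP content by one-step luminescence after 15-30 min at room temperature.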
GALK inhibitor – inhibitors of human galactokinase; AID 1868; 270,000 tested, 0.007% active; Potency, µM (top dose mostly 57.5 µM), for inactives: at the highest dose activity change, negative = inhibition, hits mostly inhibitors; P51570; Purified GALK, Kinase-Glo residual ATP luminescence; note: potency is the fitted concentration of half-maximal effect; % is set by controls: 0 for no effect and ±100 for the full control effect
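Quantitative HTS: GALK 5 nM, ATP 35 uM, galactose 100 uM, 1 h room temperature, then luciferase-based ATP detection.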
Numbers without * were called inactive; & = joins results of further samples; [ ] = dose if it differs, or a comment. Unless noted, calls come from the whole dose curve; as a rule, active = well fitted inhibition curve with a large enough effect; inconclusive = small, poorly fitted or top-dose-only effect, or effect the other way; inactive = flat fitted curve, though single readings scatter. This is a subset; count on the stated rates, not on these rows.

For O=c1c(O)c(-c2ccc(O)c(O)c2)oc2cc(O)cc(O)c12 the results were Menin-MLL TR inh inconclusive, USP2a block -2%, KCNH2 3.1 block -4, CXXC DNA block 31%&19%[activator], Coupling enz -1&0&-3&-24&-1&1, TRPV1 agonist -2 and Giardia kill 7.
`Nc1ccccc1C(=O)OCC(=O)Nc1ccc(Br)cc1F` gave Menin-MLL TR inh -13%, USP2a block 2%, KCNH2 3.1 block -1, CXXC DNA block 14%, Coupling enz -6, TRPV1 agonist -1, Giardia kill -11 and GALK inhibitor -4%.
`C[C@@H]1CC[C@H]2[C@@H](C)C(=O)O[C@@H]3OC4(C)CC[C@@H]1C32OO4` (stereo not given in full) gave Menin-MLL TR inh 6%, CXXC DNA block -5% and Coupling enz 2.
COc1ccc(NC(=O)CN2CC=C(c3ccccc3)CC2)cc1S(=O)(=O)N1CCOCC1 was read as Menin-MLL TR inh -13%, USP2a block 5%, KCNH2 3.1 block 17, CXXC DNA block 5%, Coupling enz -1, TRPV1 agonist 1, Giardia kill -15 and GALK inhibitor 3%.
Cc1ccc(N2CCN(CCc3ccccc3)CC2)cc1 was read as Menin-MLL TR inh 3%, USP2a block 4%, KCNH2 3.1 block -13, CXXC DNA block -10%, Coupling enz 13, TRPV1 agonist -2, Giardia kill 10 and GALK inhibitor -1%.
CC1OC1P(=O)(O)O (stereo not given) was read as Menin-MLL TR inh 1%&1%, CXXC DNA block -8%&4% and Coupling enz -1.
Screening CC(=O)Oc1ccccc1C(=O)Nc1ncc([N+](=O)[O-])s1 returned Menin-MLL TR inh inconclusive, USP2a block 10%, CXXC DNA block -2%&1%, Coupling enz -18, TRPV1 agonist 0 and GALK inhibitor -1%.
NCCc1ccc(O)cc1 was read as Menin-MLL TR inh 13%&-3%&5%&5%, USP2a block 7%, KCNH2 3.1 block 9, CXXC DNA block inconclusive, Coupling enz -1&5, TRPV1 agonist 2, Giardia kill -1 and GALK inhibitor 0%.
For Cc1nn(C)c(C)c1P(=S)(c1c(C)nn(C)c1C)N(C)C the results were Menin-MLL TR inh 1%, USP2a block 2%, KCNH2 3.1 block -2, CXXC DNA block 5%, Coupling enz 3, TRPV1 agonist 2, Giardia kill 26 and GALK inhibitor 1%.
For NCCc1c[nH]c2ccc(O)cc12 the results were Menin-MLL TR inh 11% and Coupling enz -10.
For C=CCn1c(O)c(C(C)=NCCN2CCCCC2)c(=O)[nH]c1=O the results were Menin-MLL TR inh 8%, USP2a block -1%, KCNH2 3.1 block 18, CXXC DNA block 7%, Coupling enz 0, TRPV1 agonist -1, Giardia kill 0 and GALK inhibitor 2%.
`C/C(=N\NC(=S)Nc1ccccc1)c1c(O)n(C)c(=O)n(C)c1=O` gave Menin-MLL TR inh 2%, USP2a block 1%, KCNH2 3.1 block 2, CXXC DNA block -3%, Coupling enz -7, TRPV1 agonist 2, Giardia kill 7 and GALK inhibitor 0%.
`Cc1cc(C)cc(N2C(=O)NC(=O)/C(=C\c3cccn3-c3ccccc3)C2=O)c1` gave Menin-MLL TR inh 22%, USP2a block 1%, KCNH2 3.1 block 7, CXXC DNA block -23%, Coupling enz 2, TRPV1 agonist 4, Giardia kill -6 and GALK inhibitor -2%.
COc1cc2c(cc1/C=C/[N+](=O)[O-])OCO2 was read as Menin-MLL TR inh -6%, USP2a block 3%, KCNH2 3.1 block 12, CXXC DNA block -3%, Coupling enz -3, TRPV1 agonist 23, Giardia kill 18 and GALK inhibitor -2%.
For CC(=O)Nc1nnc(S(N)(=O)=O)s1 the results were Menin-MLL TR inh inconclusive, USP2a block 22%, KCNH2 3.1 block 0, CXXC DNA block 9%&-2%, Coupling enz 1&1&0, TRPV1 agonist 0, Giardia kill -3 and GALK inhibitor 0%.
O=C(O)CCCCC1SCC2NC(=O)NC21 (stereo not given) was read as Menin-MLL TR inh 39%&2%[activator], USP2a block 7%&1%, KCNH2 3.1 block -3, CXXC DNA block 8%&0%, Coupling enz 5&5&2, TRPV1 agonist 0&3, Giardia kill 14 and GALK inhibitor 1%.
Screening O=C(N/N=C/c1cccnc1)c1ccc(NC(=O)C(c2ccccc2)c2ccccc2)cc1 returned Menin-MLL TR inh inconclusive, USP2a block -1%, KCNH2 3.1 block -11, CXXC DNA block -1%, Coupling enz 2, TRPV1 agonist 3, Giardia kill 3 and GALK inhibitor 0%.
For CC(=O)[C@]1(O)CCC2C3CCC4=CC(=O)CC[C@@]4(C)C3CC[C@]21C (stereo not given in full) the results were Menin-MLL TR inh -17% and Coupling enz 0.
CN1CCc2cc(O)cc3c2[C@H]1Cc1ccc(O)c(O)c1-3 was read as KCNH2 3.1 block -1 and Giardia kill 12.
Screening CN(C)C1C(=O)C(C(N)=O)=C(O)[C@@]2(O)C(=O)C3=C(O)c4c(O)ccc(Cl)c4[C@](C)(O)C3CC12 (stereo not given in full) returned Menin-MLL TR inh 7% and Coupling enz -9.

Three entries out of the list, ordered by length of the SMILES, high to low.
`C[C@@H]1CC[C@H]2[C@@H](C)C(=O)O[C@@H]3OC4(C)CC[C@@H]1C32OO4` (stereo not given in full) gave Menin-MLL TR inh 6%, CXXC DNA block -5% and Coupling enz 2.
CN1CCc2cc(O)cc3c2[C@H]1Cc1ccc(O)c(O)c1-3 was read as KCNH2 3.1 block -1 and Giardia kill 12.
O=C(O)CCCCC1SCC2NC(=O)NC21 (stereo not given) was read as Menin-MLL TR inh 39%&2%[activator], USP2a block 7%&1%, KCNH2 3.1 block -3, CXXC DNA block 8%&0%, Coupling enz 5&5&2, TRPV1 agonist 0&3, Giardia kill 14 and GALK inhibitor 1%.

Other structures:
CN(C)[C@@H]1C(=O)C(C(N)=O)=C(O)[C@@]2(O)C(=O)C3=C(O)c4c(O)ccc(Cl)c4[C@@](C)(O)[C@H]3C[C@@H]12 was read as Menin-MLL TR inh -19%, USP2a block -1%, KCNH2 3.1 block -4, CXXC DNA block -3%, Coupling enz -8, TRPV1 agonist -2 and Giardia kill 4.
O=C(O)CCCC[C@H]1SC[C@H]2NC(=O)N[C@@H]21 was read as Menin-MLL TR inh 0%[24.8 µM] and Coupling enz 4.
Nc1c2c(nc3sc4c(c13)CCCC4)CCCCC2 was read as Menin-MLL TR inh -13%, USP2a block 0%, KCNH2 3.1 block -30, CXXC DNA block 16%, Coupling enz 0, TRPV1 agonist inconclusive, Giardia kill -27 and GALK inhibitor -3%.
`CNCC[C@H](Oc1ccc(C(F)(F)F)cc1)c1ccccc1` gave Menin-MLL TR inh inconclusive, USP2a block 0%, CXXC DNA block 20%, Coupling enz 7&4, TRPV1 agonist -4 and Giardia kill 21.
C[C@H]1CC[C@@H]2[C@@H](C)C(=O)O[C@H]3O[C@@]4(C)CC[C@H]1[C@@]32OO4 was read as Menin-MLL TR inh -9%[24.8 µM] and Coupling enz 1.
C[N+](C)(C)CCCl was read as Menin-MLL TR inh -1% and Coupling enz 2.

Structural class, the entries above containing sulfur (eight)
COc1ccc(NC(=O)CN2CC=C(c3ccccc3)CC2)cc1S(=O)(=O)N1CCOCC1 was read as Menin-MLL TR inh -13%, USP2a block 5%, KCNH2 3.1 block 17, CXXC DNA block 5%, Coupling enz -1, TRPV1 agonist 1, Giardia kill -15 and GALK inhibitor 3%.
Screening CC(=O)Oc1ccccc1C(=O)Nc1ncc([N+](=O)[O-])s1 returned Menin-MLL TR inh inconclusive, USP2a block 10%, CXXC DNA block -2%&1%, Coupling enz -18, TRPV1 agonist 0 and GALK inhibitor -1%.
For Cc1nn(C)c(C)c1P(=S)(c1c(C)nn(C)c1C)N(C)C the results were Menin-MLL TR inh 1%, USP2a block 2%, KCNH2 3.1 block -2, CXXC DNA block 5%, Coupling enz 3, TRPV1 agonist 2, Giardia kill 26 and GALK inhibitor 1%.
`C/C(=N\NC(=S)Nc1ccccc1)c1c(O)n(C)c(=O)n(C)c1=O` gave Menin-MLL TR inh 2%, USP2a block 1%, KCNH2 3.1 block 2, CXXC DNA block -3%, Coupling enz -7, TRPV1 agonist 2, Giardia kill 7 and GALK inhibitor 0%.
For CC(=O)Nc1nnc(S(N)(=O)=O)s1 the results were Menin-MLL TR inh inconclusive, USP2a block 22%, KCNH2 3.1 block 0, CXXC DNA block 9%&-2%, Coupling enz 1&1&0, TRPV1 agonist 0, Giardia kill -3 and GALK inhibitor 0%.
O=C(O)CCCCC1SCC2NC(=O)NC21 (stereo not given) was read as Menin-MLL TR inh 39%&2%[activator], USP2a block 7%&1%, KCNH2 3.1 block -3, CXXC DNA block 8%&0%, Coupling enz 5&5&2, TRPV1 agonist 0&3, Giardia kill 14 and GALK inhibitor 1%.
O=C(O)CCCC[C@H]1SC[C@H]2NC(=O)N[C@@H]21 was read as Menin-MLL TR inh 0%[24.8 µM] and Coupling enz 4.
Nc1c2c(nc3sc4c(c13)CCCC4)CCCCC2 was read as Menin-MLL TR inh -13%, USP2a block 0%, KCNH2 3.1 block -30, CXXC DNA block 16%, Coupling enz 0, TRPV1 agonist inconclusive, Giardia kill -27 and GALK inhibitor -3%.
